# Screening data (PubChem)
# Measles inh = inhibitors of measles virus growth in infected cells | AID 745 | z-score (concentration not given with the values) | infected Vero cells, GFP fluorescence, 64 h; active compounds read low | 33,000 compounds, 0.1% hits;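 active = z-score under -3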;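 note: score is relative to mean and SD of the compound wells of a plate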
# Active calls of the source: *. The list is partial; rates above refer to the full screens.
SMILES,Measles inh
CC(=O)Nc1nc(C)c(-c2csc(Nc3cccc([N+](=O)[O-])c3)n2)s1,-0.4
Cc1cc(C)c(S(=O)(=O)Nc2c(C)n(C)n(-c3ccccc3)c2=O)c(C)c1,-0.09
COc1ccccc1C(=O)Oc1ccc(Cl)cc1NC1=NS(=O)(=O)c2ccccc21,-0.2
Cc1ccc(S(=O)(=O)NC(CC(=O)NCc2ccccc2Cl)c2ccco2)cc1 (stereo unspecified),-0.08
CC1CCC(NC(=O)c2ccc(-n3c(=S)[nH]c4ccccc4c3=O)cc2)CC1 (stereo unspecified),0.65
O=[N+]([O-])c1nn(-c2ccc(Cl)cc2)n(O)c1=NCc1ccco1,-0.24
O=C(O)Cc1cccnc1,-0.66
COC(=O)C1=CN(CC2CCCO2)C=C(C(=O)OC)C1c1ccc(OC)c(OC)c1 (stereo unspecified),-0.19
COc1cc(C(c2c[nH]c3ccccc23)c2c[nH]c3ccccc23)cc(OC)c1O,0.26
O=C(CC1Nc2ccccc2NC1=O)NCC1COc2ccccc2O1 (stereo unspecified),-0.55
CCC(NS(=O)(=O)c1ccc(C)cc1)C(=O)NC1CCCC(C)C1C (stereo unspecified),0.67
O=C1NC(=Nc2ccccc2)CS1,0.32
Cc1[nH][nH]c(=O)c1C(c1ccco1)c1c(C)[nH][nH]c1=O,0.41
Cn1cc(SCC(=O)Nc2ccc(F)cc2)c2ccccc21,1.3
COCCNC(=O)C1c2ccccc2C(=O)N(CCOC)C1c1cn(C)c2ccccc12 (stereo unspecified),1.5
COc1cccc(N2COc3cc(C)c(Cl)c(C)c3C2)c1,-0.28
Nc1nonc1-c1noc(-c2ccc(F)cc2)n1,-0.08
Nc1nnc(-c2ccccc2SCc2ccc(F)cc2)s1,-0.54
N=c1n(Cc2ccccc2)c2ccccc2n1CC(O)c1cccs1 (stereo unspecified),-0.7
CC(=O)Cc1ccc2ccccc2n1,0.04
Cn1cnnc1SCC(=O)Nc1ccc(S(N)(=O)=O)cc1,0.04
COC(=O)c1ccc(C2N=C(c3ccc(C)cc3)CC(c3cc(Br)ccc3O)N2)cc1 (stereo unspecified),1.2
O=C(CSc1nc2[nH]ncc2c(=O)n1-c1ccccc1Cl)Nc1ccccc1Cl,1.2
CCOc1ccc(CN2C(=O)CCC2(C)C(=O)NC2CCCCC2)cc1OC (stereo unspecified),0.37
COCCCNC(=O)C1c2ccccc2Oc2ccccc21,0.11
Cc1ccccc1-n1nc2c(c1NC(=O)c1ccccc1F)CS(=O)C2 (stereo unspecified),1.3
O=C(NCCNC(=O)c1ccco1)c1ccco1,-0.56
CCOc1ccccc1NC(=O)c1cc(S(=O)(=O)N2CCCCCC2)ccc1F,0.2
CN1CCN(Cc2c(O)ccc3c(=O)c(Oc4ccc(-c5ccccc5)cc4)c(C(F)(F)F)oc23)CC1,-2.1
O=C(NCCC1=CCCCC1)C(Cc1ccc([N+](=O)[O-])cc1)N1C(=O)c2ccccc2C1=O (stereo unspecified),0.34
COc1ccc(Oc2c(C(F)(F)F)oc3cc(OC(=O)c4ccco4)ccc3c2=O)cc1,-0.32
O=C(Nc1ccc(F)cc1)c1ccc([N+](=O)[O-])cc1Cl,-0.87
Cc1ccc(NS(=O)(=O)c2c(C)n[nH]c2C)c(C)c1,-1.6
CC(C)(C)c1ccc(C(=O)Nc2ccc(I)cc2)cc1,-0.47
CC1CCc2c(sc(N)c2C(=O)Nc2ccc(Br)cc2)C1 (stereo unspecified),-0.7
COC(=O)C1=C(NC(=O)NC(=O)N(C)S(=O)(=O)c2ccc(C)cc2)CCS1,-0.3
CCOC(=O)C1CCN(C(=O)c2sc3ncn(CCOC)c(=O)c3c2C)CC1,1.5
CCOCCCNC(=O)c1cc(-c2ccccn2)nc2ccccc12,-0.99
CCOC(=O)c1c(N=Cc2ccc(N(CC)CC)cc2O)sc2c1CCCC2,5.6
Cc1c(CC(=O)O)c2c(n1-c1ccc(Br)cc1)CC(C)(C)CC2=O,-0.87
O=C(Nc1ccc(Br)cc1)C1C2C=CC3(O2)C1C(=O)N(C1CC1)C3C(=O)NC1CCCCC1 (stereo unspecified),2.5
Cc1ccc(N2C(=O)C(CCC(=O)O)NC2=S)cc1C (stereo unspecified),0.43
Cc1nnc(Sc2cc(C(=O)NCCCN3CCC(C)CC3)c3ccccc3n2)s1,0.64
O=C(O)CN1C(=O)COc2ccccc21,0.97
COc1ccc(CNC(=O)c2cccc([N+](=O)[O-])c2C)cc1,-0.03

# Ordered by SMILES length (smallest number first): 16 of the compounds above.
SMILES,Measles inh
O=C(O)Cc1cccnc1,-0.66
CC(=O)Cc1ccc2ccccc2n1,0.04
O=C(O)CN1C(=O)COc2ccccc21,0.97
COCCCNC(=O)C1c2ccccc2Oc2ccccc21,0.11
CC(C)(C)c1ccc(C(=O)Nc2ccc(I)cc2)cc1,-0.47
Cn1cnnc1SCC(=O)Nc1ccc(S(N)(=O)=O)cc1,0.04
CCOCCCNC(=O)c1cc(-c2ccccn2)nc2ccccc12,-0.99
Cc1ccc(NS(=O)(=O)c2c(C)n[nH]c2C)c(C)c1,-1.6
CCOc1ccc(CN2C(=O)CCC2(C)C(=O)NC2CCCCC2)cc1OC (stereo unspecified),0.37
CCOc1ccccc1NC(=O)c1cc(S(=O)(=O)N2CCCCCC2)ccc1F,0.2
COCCNC(=O)C1c2ccccc2C(=O)N(CCOC)C1c1cn(C)c2ccccc12 (stereo unspecified),1.5
CC1CCC(NC(=O)c2ccc(-n3c(=S)[nH]c4ccccc4c3=O)cc2)CC1 (stereo unspecified),0.65
COC(=O)C1=CN(CC2CCCO2)C=C(C(=O)OC)C1c1ccc(OC)c(OC)c1 (stereo unspecified),-0.19
COC(=O)C1=C(NC(=O)NC(=O)N(C)S(=O)(=O)c2ccc(C)cc2)CCS1,-0.3
COC(=O)c1ccc(C2N=C(c3ccc(C)cc3)CC(c3cc(Br)ccc3O)N2)cc1 (stereo unspecified),1.2
O=C(Nc1ccc(Br)cc1)C1C2C=CC3(O2)C1C(=O)N(C1CC1)C3C(=O)NC1CCCCC1 (stereo unspecified),2.5

# Later entries:
SMILES,Measles inh
COc1ccccc1NCc1ccccc1NS(=O)(=O)c1ccc(C)cc1,-0.34
Cc1ccc(-c2nc3ccccc3s2)cc1NC(=O)c1ccccc1I,-1.1
Cc1cccc(Cc2c(C)nc3nc(SCC(=O)NCCC(C)C)nn3c2C)c1,0.07
COCCNC(=O)Cn1c(=O)n(-c2ccc(C)c(C)c2)c(=O)c2c3c(sc21)CCCCC3,1.3
COc1ccc(C(=O)Nc2ccc(-n3nncc3-c3ccc(OC)c(OC)c3)cc2)cc1OC,-0.29
CCOC(=O)c1cccc(C(=O)Nc2nc3ccc(C)cc3s2)n1,1.8
O=C(NCCCN1CCOCC1)c1ccccc1I,2.1
CCC(C(=O)O)N1C(=O)C2CCCCC2C1=O (stereo unspecified),1.1
COc1ccc(Cl)cc1Nc1ncnc2sc(C)c(C)c12,1.1
CCOc1ccc2nc(SCC(=O)Nc3ccc4c(c3)C(=O)c3ccccc3C4=O)sc2c1,-0.88
Cc1nc(-c2ccc(NC(=O)c3cccc(Br)c3)cc2)cs1,-0.14
CN1C(=O)N(CO)C2C1N(CO)C(=O)N2CO (stereo unspecified),-0.48
CC1CCc2nc(SCC(=O)Nc3ccc(S(=O)(=O)N4CCOCC4)cc3)c(C#N)cc2C1 (stereo unspecified),-0.74
OCCN1CCN(C2CCN(Cc3ccc(Cl)cc3)CC2)CC1,-0.96
CSc1nc(NC(C)=O)n(C(C)=O)n1,1.3
Cc1ccc2c(c1)N(C)C(=O)CC(c1ccccc1)=N2,-1
O=C1c2ccccc2-c2nc(COc3ccccc3)cc3cccc1c23,-0.01
Oc1ccccc1C(O)C(F)(F)F (stereo unspecified),-0.4
COc1ccc(C2C(C(=O)NCCN(C)C)CCC(=O)N2c2ccc(OC)cc2)cc1 (stereo unspecified),-0.7
O=C(Oc1ccc(C=Nc2ccc(Cl)cc2)cc1)c1ccccc1,0.55
Cc1c(C(=O)Nc2cccc(C(F)(F)F)c2)cccc1[N+](=O)[O-],0.32
c1ccc(OCCCn2c3ccccc3c3nc4ccccc4nc32)cc1,0.16
FC(F)(F)c1cc(-c2ccc(Cl)cc2)nc(-n2ccnc2)n1,0.39
COC(=O)C1=C(C)NC2=C(C(=O)CC(c3ccccc3)C2)C1c1ccccc1Cl (stereo unspecified),-0.12
CCOc1ccc(NC(=O)c2c(NC(=O)c3ccco3)sc3c2CCC(C(C)(C)C)C3)cc1 (stereo unspecified),-0.53
C=CCN=c1c([N+](=O)[O-])nn(C)n1O,-1.1
CC(O)c1cccc(NC2=CC(=O)CC(C)(C)C2)c1 (stereo unspecified),-0.68
COc1ccc(C2CC(=O)C3=C(C2)NC(C)=C(C(=O)OC(C)C)C3c2ccc(F)cc2)cc1 (stereo unspecified),0.74
O=C1CCCN2N=C(SCC(=O)OCc3ccccc3)SC2=N1,1.1
CC1C2NC(=S)N(c3cccc(Cl)c3)C1(C)Oc1ccc([N+](=O)[O-])cc12 (stereo unspecified),-0.56
c1ccc(-c2oc3ncn4nc(-c5ccncc5)nc4c3c2-c2ccccc2)cc1,-0.74
O=C(C1c2ccccc2Oc2ccccc21)N1CCN=C1SCc1ccccc1F,0.69
CC(=O)Nc1cc(C(=O)NCc2cccnc2)ccc1Sc1ccc(C)cc1,1.1
COc1ccccc1NC(=O)COc1c(C)cccc1C,-1.2
Cc1ccc(C23CC4CC(CC(C(=O)NC(C(=O)O)C(C)C)(C4)C2)C3)cc1 (stereo unspecified),0.59
O=C(Nc1c2c(nn1-c1cccc(Cl)c1)CSC2)c1ccc(Br)o1,-0.44
CCCOc1ccc(C2Nc3ccc4ccccc4c3C3=C2C(=O)CC(C)(C)C3)cc1 (stereo unspecified),2.1
COc1cc2ccccc2cc1-c1nc(-c2nonc2N)no1,-1
Cc1nc(NC(=O)c2ccccc2[N+](=O)[O-])sc1C(C)(C)C,-1.4
COCCN1C(=O)c2ccccc2C(C(=O)NCC2(c3ccccc3)CCCC2)C1c1cn(C)c2ccccc12 (stereo unspecified),0.65
CCc1ccccc1Nc1cc(C(=O)NC(C)CC)c2ccccc2n1 (stereo unspecified),-0.1
CC1CC(C)CN(C(C(=O)NC2CCCC2)c2ccc(Cl)cc2)C1 (stereo unspecified),-0.43
COCCNC(=O)c1cnn2c(C)c(Cc3ccccc3Cl)c(C)nc12,-0.86
CCCOC(=O)C1=C(C)NC2=C(C(=O)CC(C)(C)C2)C1c1cccnc1 (stereo unspecified),-0.14
CC1=C(C(=O)OCc2ccccc2)C(c2ccncc2)C2=C(CC(C)(C)CC2=O)N1 (stereo unspecified),-0.81
O=[N+]([O-])c1cn(-c2nc(-c3ccccc3)cc(C(F)(F)F)n2)cn1,0.36
COc1ccc(C(=O)Nc2c3c(nn2-c2ccc(F)cc2)CS(=O)C3)cc1OC (stereo unspecified),1.8
CCC(C)OC(=O)c1c(NC(=O)c2nc3ncccn3n2)sc2c1CCCC2 (stereo unspecified),0.53
Cc1ccccc1Nc1sc(C(=O)c2ccccc2)c(N)c1C(=O)Nc1ccccc1,-0.25
O=C(CCn1c(=S)[nH]c2ccccc2c1=O)NCc1cccnc1,1.2
Cc1cc(N2CCOCC2)nc2ccc(NC(=O)CCC(=O)N3CCC(C)CC3)cc12,-1.1
CC#CCCCC(=O)Nc1cc(OC)nc(OC)n1,0.69
O=C(COC(=O)c1ccc([N+](=O)[O-])o1)c1ccc(Br)cc1,1.3
O=C(NCc1ccc2c(c1)OCO2)c1cc(Nc2ccccc2)nc2ccccc12,0.02
CCC(C(=O)NCCC(C)C)N1C(=O)CSc2ccc(C(C)(C)C)cc21 (stereo unspecified),0.55
CC(=O)c1ccc(Oc2cc(C)nc(N3CCOCC3)n2)cc1,-0.36
COc1cc2c(cc1OC)C(C(=O)Nc1ccc(C)c(F)c1)C1c3ccccc3CCN1C2=O (stereo unspecified),0.84
CC1(C)C(=O)OC(C(=O)c2ccccc2)C2(CCCCC2)C1=O (stereo unspecified),0.25
CCC(C(=O)Nc1c2c(nn1-c1ccc(OC)cc1)CS(=O)(=O)C2)c1ccccc1 (stereo unspecified),-0.67
CC1=C(C(=O)OCC2CCCO2)C2(O)C(=O)c3ccccc3C2(O)N1 (stereo unspecified),-0.33

# (list continues)
SMILES,Measles inh
CN(C)c1cc[n+](CC(=O)c2ccc(Cl)cc2)cc1,0.01
COc1ccc(-c2cc3nc(C)cc(N)n3n2)cc1,0.01
CC(=O)CSc1nsc(SCC(C)=O)n1,0.88
OC(CNc1ccccc1)Cn1c2ccc(Cl)cc2c2cc(Cl)ccc21 (stereo unspecified),-1.3
COCCn1c(=O)[nH]c2cc(C(=O)NC3CC3)ccc2c1=O,-2.4
COc1cc(NC(=O)c2noc3c2CCC3)c(OC)cc1Cl,1.3
C=CCNC(=O)CCCCCn1c(=S)[nH]c2ccccc2c1=O,-0.2
Cc1ccc(C2CC(C(F)(F)F)n3nc(C(=O)Nc4cccc(C(C)O)c4)cc3N2)cc1 (stereo unspecified),-0.35
Cc1c(C(=O)NCC2COc3ccccc3O2)oc2ccc(S(=O)(=O)N3CCOCC3)cc12 (stereo unspecified),-0.3
CC1=CCC(C(=O)NCc2ccccc2)C(c2ccc([N+](=O)[O-])cc2)C1 (stereo unspecified),1.4
O=C1C=C(c2cccc([N+](=O)[O-])c2)C(=O)N1c1ccc(Cl)cc1,0.6
COc1ccc(C(=O)N2CCN=C2SCc2cc(C)ccc2C)c(OC)c1,0.54
CCn1cc(C(=O)Nc2cc([N+](=O)[O-])ccc2OC)c(=O)c2ccc(C)nc21,-0.45
COc1ccc(NC(=O)COc2ccccc2C(C)C)c(OC)c1,0.52
O=C(Oc1ccc(C=Nc2ccccc2)cc1[N+](=O)[O-])c1ccccc1,1
Cc1ccc(S(=O)(=O)Nc2ccccc2CNc2ccc(C)cc2C)cc1,-1.2
O=C(CN1CCN(CCO)CC1)Nc1ccc(OC(F)(F)Cl)cc1,-0.68
O=C(CSc1nc2c(cnn2-c2ccccc2)c(=O)[nH]1)N1CCCCC1,-1.2
CCOc1ccc(C2NC(=S)NC(C)=C2C(=O)OC)cc1 (stereo unspecified),-0.02
